Source: PubChem (Broad Institute)
AF4-AF9 inh – MLL-AF4/AF9 protein interaction inhibition; 350,000 tested, 0.47% active; P42568; inhibition, % at 10 µM; AlphaScreen, biotin-AF4 peptide binding to FLAG-AF9; AID 651704;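 active = every replicate reaching a set inhibition limit, whatever the replicate mean, cut at about 25% in these data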;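 note: 0% = plate neutral control median and 100% = total signal loss; the record names both 10 and 1 µM as test concentration; the first replicate is given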
Target sequence (P42568 whole entry, looked up): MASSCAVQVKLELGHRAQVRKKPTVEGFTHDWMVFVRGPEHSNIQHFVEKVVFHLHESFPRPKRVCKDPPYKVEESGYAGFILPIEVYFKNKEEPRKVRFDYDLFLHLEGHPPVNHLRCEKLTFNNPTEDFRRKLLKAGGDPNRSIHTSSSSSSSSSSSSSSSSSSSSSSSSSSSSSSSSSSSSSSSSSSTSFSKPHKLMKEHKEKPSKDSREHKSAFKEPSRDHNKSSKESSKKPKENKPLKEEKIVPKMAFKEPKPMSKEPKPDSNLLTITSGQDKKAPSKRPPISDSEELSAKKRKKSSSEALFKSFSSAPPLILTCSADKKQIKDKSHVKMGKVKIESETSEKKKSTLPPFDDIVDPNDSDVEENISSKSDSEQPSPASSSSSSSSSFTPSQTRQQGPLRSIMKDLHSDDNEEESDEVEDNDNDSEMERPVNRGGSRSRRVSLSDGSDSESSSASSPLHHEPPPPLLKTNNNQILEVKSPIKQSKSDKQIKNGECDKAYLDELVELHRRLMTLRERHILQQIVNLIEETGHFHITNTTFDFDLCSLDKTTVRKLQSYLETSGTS
FGF22 binding – shifts melting point of recombinant human FGF22; Q9HCT0; recombinant FGF22 thermal shift, SYPRO orange fluorescence; percent of sucrose octasulfate shift, DMSO zero; 340,000 tested, 1.5% active; AID 651658; calls only at 9.99 µM;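 active = melting point raised past a set limit in the mean and every replicate; three in four hits are not shown here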
Target sequence (Q9HCT0 whole entry, looked up): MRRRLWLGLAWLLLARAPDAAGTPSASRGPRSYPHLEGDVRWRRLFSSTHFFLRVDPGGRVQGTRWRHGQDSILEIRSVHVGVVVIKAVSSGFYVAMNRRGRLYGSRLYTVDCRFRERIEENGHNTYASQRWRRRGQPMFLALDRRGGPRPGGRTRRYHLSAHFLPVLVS
* marks the source's active call; other numbers are inactive results. This is a subset (hit frequency here may not be typical).

CC(C)NC(=O)N(C)C[C@@H]1Oc2ncc(C#CCc3ccccc3)cc2C(=O)N([C@H](C)CO)C[C@H]1C was read as AF4-AF9 inh -0.5 and FGF22 binding inactive.
For O=C(N[C@H]1CC[C@@H](CCNC(=O)c2cnccn2)O[C@@H]1CO)c1ccc2c(c1)OCO2 the results were AF4-AF9 inh -0.1 and FGF22 binding inactive.
C[C@H](CO)N1C[C@H](C)[C@H](CN(C)Cc2ccccc2)Oc2ccc(NS(=O)(=O)c3cn(C)cn3)cc2CC1=O was read as AF4-AF9 inh -1.8 and FGF22 binding inactive.
`C[C@H]1CN([C@@H](C)CO)C(=O)c2cc(-c3cccnc3)cnc2O[C@H]1CN(C)C(=O)Nc1ccc(C(F)(F)F)cc1` gave AF4-AF9 inh 0.7 and FGF22 binding inactive.
`C[C@@H]1CN([C@@H](C)CO)S(=O)(=O)c2ccc(C3=CCCC3)cc2O[C@H]1CN(C)S(=O)(=O)c1ccc(F)cc1` gave AF4-AF9 inh -0.6 and FGF22 binding inactive.
CO[C@@H]1CN(C)C(=O)c2cc(NC(=O)Nc3ccccc3)ccc2OC[C@H](C)N(C(=O)CC2CC2)C[C@H]1C was read as AF4-AF9 inh 3.0 and FGF22 binding inactive.
Screening CO[C@@H]1CN(C)C(=O)c2cc(NS(=O)(=O)c3c(C)noc3C)ccc2OC[C@H](C)NC[C@H]1C returned AF4-AF9 inh -0.5 and FGF22 binding inactive.
COc1ccc(C(=O)NCC2CCN(C(=O)C(=O)c3cc4ccccc4o3)CC2)cc1 was read as AF4-AF9 inh -1.4 and FGF22 binding inactive.
For N#C[C@@H]1[C@@H](c2ccccc2C2=CCCCC2)[C@@H](CO)N1C(=O)c1ccccn1 the results were AF4-AF9 inh -8.7 and FGF22 binding inactive.
CCC(=O)N1[C@H](CNC(C)=O)[C@H](c2ccc(-c3cccc(F)c3)cc2)[C@@H]1CO was read as AF4-AF9 inh -0.8 and FGF22 binding inactive.
`CNC(=O)C[C@@H]1CC[C@@H]2[C@H](COc3ccc(NC(=O)c4ccccc4OC)cc3C(=O)N2C)O1` gave AF4-AF9 inh 0.9 and FGF22 binding inactive.
Screening COc1ccc(NC(=O)N(C)C[C@@H]2OCCCC[C@@H](C)Oc3ccc(NC(=O)Nc4c(C)noc4C)cc3C(=O)N([C@H](C)CO)C[C@H]2C)cc1 returned AF4-AF9 inh 1.2 and FGF22 binding inactive.
Screening OC[C@@H]1[C@@H](c2ccccc2)C2(CN(CC3CCOCC3)C2)N1Cc1nccs1 returned AF4-AF9 inh -0.7 and FGF22 binding inactive.
Screening Cc1ccc(-c2ccc3c(c2)O[C@H](CN(C)Cc2cccnc2)[C@@H](C)CN([C@@H](C)CO)S3(=O)=O)cc1 returned AF4-AF9 inh 4.6 and FGF22 binding inactive.
Screening CCC(=O)N1C[C@@H](C)[C@@H](OC)CN(C)C(=O)c2ccc(NC(=O)c3ccno3)cc2OC[C@@H]1C returned AF4-AF9 inh -4.4 and FGF22 binding inactive.

Molecules shown so far that contain sulfur:
C[C@H](CO)N1C[C@H](C)[C@H](CN(C)Cc2ccccc2)Oc2ccc(NS(=O)(=O)c3cn(C)cn3)cc2CC1=O was read as AF4-AF9 inh -1.8 and FGF22 binding inactive.
`C[C@@H]1CN([C@@H](C)CO)S(=O)(=O)c2ccc(C3=CCCC3)cc2O[C@H]1CN(C)S(=O)(=O)c1ccc(F)cc1` gave AF4-AF9 inh -0.6 and FGF22 binding inactive.
Screening CO[C@@H]1CN(C)C(=O)c2cc(NS(=O)(=O)c3c(C)noc3C)ccc2OC[C@H](C)NC[C@H]1C returned AF4-AF9 inh -0.5 and FGF22 binding inactive.
Screening OC[C@@H]1[C@@H](c2ccccc2)C2(CN(CC3CCOCC3)C2)N1Cc1nccs1 returned AF4-AF9 inh -0.7 and FGF22 binding inactive.
Screening Cc1ccc(-c2ccc3c(c2)O[C@H](CN(C)Cc2cccnc2)[C@@H](C)CN([C@@H](C)CO)S3(=O)=O)cc1 returned AF4-AF9 inh 4.6 and FGF22 binding inactive.

Continued:
CCC(=O)Nc1ccc2c(c1)C(=O)N(C)[C@H]1CC[C@H](CC(=O)NCc3ccccc3Cl)O[C@@H]1CO2 was read as AF4-AF9 inh -0.1 and FGF22 binding inactive.
For COc1ccc(NC(=O)Nc2ccc3c(c2)C(=O)N([C@@H](C)CO)C[C@H](C)[C@@H](CN(C)C)OCCCC[C@H](C)O3)cc1 the results were AF4-AF9 inh 2.7 and FGF22 binding inactive.
COc1ccccc1S(=O)(=O)Nc1ccc2c(c1)OC[C@@H](C)NC[C@@H](C)[C@@H](OC)CN(C)C2=O was read as AF4-AF9 inh -5.4 and FGF22 binding inactive.
Screening CCCC#Cc1cnc2c(c1)C(=O)N([C@H](C)CO)C[C@@H](C)[C@H](CN(C)C(=O)Cc1ccncc1)O2 returned AF4-AF9 inh -3.1 and FGF22 binding inactive.
For C[C@@H]1CN([C@@H](C)CO)C(=O)c2cc(NC(=O)c3ccncc3)ccc2O[C@@H]1CN(C)C(=O)Nc1ccc(C(F)(F)F)cc1 the results were AF4-AF9 inh -2.6 and FGF22 binding inactive.
For CC(C)NC(=O)N(C)C[C@H]1Oc2cc(C#C[C@@H](C)O)ccc2S(=O)(=O)N([C@H](C)CO)C[C@H]1C the results were AF4-AF9 inh -2.3 and FGF22 binding inactive.
For CCCNC(=O)[C@@H]1[C@@H](CO)[C@@H]2Cn3c(ccc(-c4cncnc4)c3=O)[C@@H]2N1C(=O)c1ccccc1F the results were AF4-AF9 inh -0.2 and FGF22 binding inactive.
C[C@@H]1CN([C@@H](C)CO)C(=O)c2cccc(NC(=O)c3ccc(-c4nccs4)cc3)c2O[C@@H]1CN(C)Cc1ccccc1 was read as AF4-AF9 inh 0.5 and FGF22 binding inactive.
Screening COc1ccc2c3c([nH]c2c1)[C@@H](CO)N(C(=O)c1cccc(F)c1)CC31CN(C(=O)c2ccccc2)C1 returned AF4-AF9 inh -0.1 and FGF22 binding inactive.
C[C@H]1CN([C@@H](C)CO)C(=O)c2cc(NC(=O)Nc3cccc4ccccc34)ccc2O[C@@H]1CN(C)CC1CCCCC1 was read as AF4-AF9 inh 2.6 and FGF22 binding inactive.
Screening O=C(C[C@@H]1CC[C@@H]2[C@H](COC[C@H](O)CN2Cc2cc(F)cc(F)c2)O1)NC1CCCC1 returned AF4-AF9 inh -0.8 and FGF22 binding inactive.
`Cc1cc(C(=O)Nc2cccc3c2O[C@H](CN(C)Cc2ccc(C(=O)Nc4ccccc4N)cc2)[C@@H](C)CN([C@H](C)CO)C3=O)n(C)n1` gave AF4-AF9 inh 4.0 and FGF22 binding inactive.
O=C(C1=C[C@H](c2ccc(Br)cc2)C[C@H](OCc2ccc(CO)cc2)O1)N1CCCC1 was read as AF4-AF9 inh -12 and FGF22 binding inactive.
`CCCC(=O)Nc1ccc2c(c1)C(=O)N(C)[C@H]1CC[C@H](CC(=O)N3CCCCC3)O[C@H]1CO2` gave AF4-AF9 inh -0.3 and FGF22 binding inactive.
COc1ccccc1S(=O)(=O)N[C@@H]1CC[C@H](CCNC(=O)C2CCC2)O[C@@H]1CO was read as AF4-AF9 inh -15 and FGF22 binding inactive.
`Cc1ccc(S(=O)(=O)N(C)C[C@@H]2OCCCC[C@@H](C)Oc3ccc(NC(=O)Nc4cccc5ccccc45)cc3C(=O)N([C@H](C)CO)C[C@@H]2C)cc1` gave AF4-AF9 inh -2.3 and FGF22 binding inactive.
Screening C[C@@H]1CN([C@@H](C)CO)C(=O)Cc2cc(NC(=O)C3CC3)ccc2O[C@@H]1CN(C)Cc1ccc(C(F)(F)F)cc1 returned AF4-AF9 inh 2.1 and FGF22 binding inactive.
`CN(C)C(=O)C[C@H]1C[C@H]2c3cc(NC(=O)C4CCC4)ccc3O[C@H]2[C@@H](CO)O1` gave AF4-AF9 inh 0.0 and FGF22 binding inactive.
Screening O=C(CN1CCOCC1)NCC[C@@H]1CC[C@@H](NC(=O)Nc2ccc(C(F)(F)F)cc2)[C@H](CO)O1 returned AF4-AF9 inh 0.1 and FGF22 binding inactive.
Screening CCS(=O)(=O)Nc1ccc2c(c1)C(=O)N(C)C[C@H](OC)[C@@H](C)CN(C(=O)NC(C)C)[C@H](C)CO2 returned AF4-AF9 inh -1.7 and FGF22 binding inactive.
`C[C@@H]1CN([C@H](C)CO)C(=O)c2cc(NC(=O)Nc3ccc4c(c3)OCO4)ccc2O[C@@H]1CN(C)S(=O)(=O)c1ccc(Cl)cc1` gave AF4-AF9 inh 5.3 and FGF22 binding inactive.
Screening CC(C)C#Cc1cnc2c(c1)C(=O)N([C@@H](C)CO)C[C@@H](C)[C@H](CN(C)C(=O)c1cnccn1)O2 returned AF4-AF9 inh -6.9 and FGF22 binding active.
CO[C@H](CN(C)S(=O)(=O)c1ccc(Cl)cc1)[C@@H](C)CN([C@@H](C)CO)S(=O)(=O)c1cccc(Cl)c1 was read as AF4-AF9 inh -0.7 and FGF22 binding inactive.
For CC(C)NC(=O)N(C)C[C@H]1Oc2ccc(NC(=O)CCN3CCOCC3)cc2CC(=O)N([C@H](C)CO)C[C@H]1C the results were AF4-AF9 inh -0.9 and FGF22 binding inactive.
For CO[C@@H]1CN(C)C(=O)c2cc(NC(C)=O)ccc2OC[C@@H](C)N(C(=O)c2cccnc2)C[C@H]1C the results were AF4-AF9 inh -1.0 and FGF22 binding inactive.
Screening C[C@H]1CN([C@@H](C)CO)C(=O)c2cc(NS(=O)(=O)c3ccc(Cl)cc3)ccc2O[C@@H]1CN(C)Cc1ccc(Oc2ccccc2)cc1 returned AF4-AF9 inh 2.6 and FGF22 binding inactive.
O=C(C[C@H]1CC[C@H](NC(=O)C2CC2)[C@H](CO)O1)NCc1ccncc1 was read as AF4-AF9 inh 0.5 and FGF22 binding inactive.
`CO[C@@H]1CN(C)C(=O)c2ccc(NS(=O)(=O)c3cccc(F)c3)cc2OC[C@@H](C)N(Cc2cc(F)ccc2F)C[C@@H]1C` gave AF4-AF9 inh 0.7 and FGF22 binding inactive.
`O=C(NC1CCCCC1)N[C@@H]1CC[C@H](CCNS(=O)(=O)c2ccccc2)O[C@@H]1CO` gave AF4-AF9 inh 3.0 and FGF22 binding inactive.
Screening C/C=C/c1cnc2c(c1)C(=O)N([C@@H](C)CO)C[C@@H](C)[C@H](CN(C)C(=O)C1CCCCC1)O2 returned AF4-AF9 inh 3.0 and FGF22 binding inactive.
For C[C@@H]1CN([C@H](C)CO)S(=O)(=O)c2ccc(-c3ccc(C(=O)N(C)C)cc3)cc2O[C@H]1CN(C)C(=O)C1CCOCC1 the results were AF4-AF9 inh 16 and FGF22 binding inactive.
For C[C@H](CO)N1C[C@H](C)[C@@H](CN(C)Cc2ccc(C(=O)O)cc2)Oc2ccc(NC(=O)Cn3cnnn3)cc2CC1=O the results were AF4-AF9 inh -9.3 and FGF22 binding inactive.
For O=C(Cc1ccccc1)N1C[C@@H]2[C@H](c3ccccc31)[C@@H](CO)N2C(=O)C1CCCCC1 the results were AF4-AF9 inh 0.2 and FGF22 binding inactive.
`Cc1ccc(S(=O)(=O)Nc2ccc3c(c2)C(=O)N([C@@H](C)CO)C[C@@H](C)[C@@H](CN(C)S(=O)(=O)c2cn(C)cn2)OCCCC[C@@H](C)O3)cc1` gave AF4-AF9 inh 3.7 and FGF22 binding inactive.
For CC(C)NC(=O)Nc1ccc2c(c1)C(=O)N([C@H](C)CO)C[C@H](C)[C@@H](CN(C)C(=O)Nc1ccccc1)OCCCC[C@H](C)O2 the results were AF4-AF9 inh 0.3 and FGF22 binding inactive.
Screening CNC[C@@H]1Oc2c(NC(=O)Nc3ccc(OC)cc3)cccc2C(=O)N([C@@H](C)CO)C[C@@H]1C returned AF4-AF9 inh 1.1 and FGF22 binding inactive.
CCN1[C@H](C(=O)N2CCc3ccccc3C2)[C@@H](CO)[C@@H]2Cn3c(cccc3=O)[C@@H]21 was read as AF4-AF9 inh 0.9 and FGF22 binding inactive.
Screening C[C@H]1CN([C@@H](C)CO)C(=O)c2cc(-c3ccc(F)cc3)cnc2O[C@H]1CN(C)C(=O)c1ccccn1 returned AF4-AF9 inh -5.2 and FGF22 binding inactive.
For C[C@@H]1CN([C@@H](C)CO)C(=O)c2cccc(NC(=O)c3ccc(-c4nccs4)cc3)c2O[C@@H]1CN(C)C(=O)Nc1ccccc1 the results were AF4-AF9 inh 0.7 and FGF22 binding inactive.
For CS(=O)(=O)N1[C@H](C#N)[C@@H](c2ccc(-c3ccccc3F)cc2)[C@H]1CO the results were AF4-AF9 inh -0.1 and FGF22 binding inactive.
Screening C[C@@H]1CN([C@H](C)CO)S(=O)(=O)c2ccc(C#C[C@@H](C)O)cc2O[C@@H]1CN(C)Cc1ccccn1 returned AF4-AF9 inh 0.6 and FGF22 binding inactive.
O=C(NC[C@@H]1[C@H](c2ccccc2)[C@H](CO)N1C(=O)C1CC1)NC1CCCC1 was read as AF4-AF9 inh -14 and FGF22 binding inactive.
Screening COc1ccc(NC(=O)N[C@H]2CC[C@@H](CCn3cc(-c4ccc(F)cc4)nn3)O[C@H]2CO)cc1 returned AF4-AF9 inh -7.7 and FGF22 binding inactive.
For COCC#Cc1ccc2c(c1)O[C@H](CN(C)Cc1ccc3c(c1)OCO3)[C@H](C)CN([C@H](C)CO)S2(=O)=O the results were AF4-AF9 inh 9.0 and FGF22 binding inactive.
Screening CO[C@H]1CN(C)C(=O)c2ccc(NC(=O)C3CC3)cc2OC[C@H](C)N(C)C[C@H]1C returned AF4-AF9 inh -28 and FGF22 binding inactive.
Screening COc1cccc(CN2CCC3(CC2)CN(C(=O)C2CC2)[C@H](CO)c2[nH]c4cc(OC)ccc4c23)c1 returned AF4-AF9 inh 7.2 and FGF22 binding inactive.
